# High-throughput results: PubChem, National Center for Advancing Translational Sciences (NCATS)
# Marburg entry inh: qHTS for inhibitors of binding or entry into cells for Marburg Virus; Potency, µM (series often up to 37.8 µM), for inactives: at the top dose activity change, negative = inhibition, usual class: inhibitors; 1.8% of 300,000 active; Marburg virus pseudotyped entry inhibition, cell reporter; control for the full effect not named in the record; about a third of the inactives were read at about 46 µM; active = well fitted inhibition curve with a large enough effect; inconclusive = small, poorly fitted or top-dose-only effect, or effect the other way; inactive = flat fitted curve, though single readings scatter; tested in HEK293 cells; about a fifth of its hits are not listed in these tables; also: luciferase read-out
# * marks the source's active call; other numbers are inactive results; ? = inconclusive; & = joins results of further samples; [ ] = another dose, or the depositor's remark. % is scaled to controls: 0 for no effect and ±100 for the full control effect; potency is read from the fitted curve at half-maximal effect.
SMILES,Marburg entry inh
COC(=O)CC=C1c2ccccc2C[C@H](OC)[C@@H]1C,-1.1%[14.2 µM]
Clc1ccc(N2C[C@H]3CC[C@@H](C2)N3)nn1,-0.6%
COc1ccc(O[C@H]2C=C[C@@H](c3ccccc3)O[C@H]2COC(=O)CCC(C)=NOC[C@@H](C)[C@H](OCc2ccccc2)C(C)C)cc1,?
COC1=C[C@H](C(=O)NCc2ccc(Br)cc2)[C@H](C)[C@@H](c2ccccc2)CC1=O,-6.3%[14.2 µM]
ClC1CCCC(Cl)C1Cn1nnc(N2CCCC2)n1 (stereo not drawn),24.1%[46.1 µM]
COC(=O)C/C=C\[C@@H](C)[C@@H](/C=N\OC[C@@H](O)COCc1ccco1)NS(=O)(=O)c1ccc(C)cc1,20.9%[14.2 µM]
Cc1cc(C)n(C[C@@H]2CC(=O)N(c3ccc(F)c(Cl)c3)C2=O)n1,3.2%
COc1ccc([C@H]2CC(=O)c3sc(N)nc3C2)cc1,-2.1%[46.1 µM]
N#C[C@H](C(=O)NC1CC1)c1nc2ccccc2nc1N1CCN(C/C=C\c2ccccc2)CC1,0.0%
CC[C@@H]1CCCCN1c1nc(-c2ccncc2)nc2ccccc12,9.2µM*
COC(=O)N[C@H](C(C(=O)OC)=C(C)NCc1ccccc1)c1ccc(Cl)cc1,-16.7%[14.2 µM]
COC(=O)[C@@H]1[C@@H](c2ccccc2)[C@H]2C(=O)c3c(OC)cc(OC)cc3O[C@@]12c1ccc(OC)cc1,3.3%[14.2 µM]
CC[C@H](C(=O)OCCN(CC)CC)c1ccccc1,1.9%
CC(C)CON=C1C[C@@H](O)[C@@H](O)[C@@H]2[C@H]3C(=O)N(c4cccc(Oc5ccccc5)c4)C(=O)[C@@H]3CC[C@H]12,-1.1%[14.2 µM]
N#C/C(C(=O)NCc1ccccc1)=C1\S[C@H](CCO)C(=O)N1c1ccccc1,-5.1%[46.1 µM]
CCCNC(=O)OC[C@H]1O[C@H](CCON=C2[C@H]3CCn4c(=O)n(-c5ccccc5)c(=O)n4[C@@H]3[C@H](O)[C@@H]3O[C@H]23)C=C[C@H]1Oc1ccc(OC)cc1,?
COC(=O)C1=C(C(=O)OC)[C@@H]2Nc3ccccc3[C@@]23C[C@@H](C(=O)OC)N(C(=O)Nc2ccc(C(F)(F)F)cc2)C3=N1,-15.4%[14.2 µM]
CCCCc1nc2c(c3c1C[C@H](C)OC3)CN(S(=O)(=O)CCCC)CC2,-1.5%&-1.5%&-1.5%[14.2 µM]
C[C@@H]1CC[C@H]2C(=O)N(Cc3ccccc3)C[C@H](O)CN2[C@H]1c1ccc(Br)cc1,-24.2%[14.2 µM]
CC(C)=CCC/C(C)=C/CO/N=C1\C[C@@H](O)[C@@H](O)[C@@H]2[C@@H]3C(=O)N(C[C@@H]4CCCO4)C(=O)[C@@H]3CC[C@H]12,-5.0%[14.2 µM]

# In the list so far, 4 have sulfur.
SMILES,Marburg entry inh
COC(=O)C/C=C\[C@@H](C)[C@@H](/C=N\OC[C@@H](O)COCc1ccco1)NS(=O)(=O)c1ccc(C)cc1,20.9%[14.2 µM]
COc1ccc([C@H]2CC(=O)c3sc(N)nc3C2)cc1,-2.1%[46.1 µM]
N#C/C(C(=O)NCc1ccccc1)=C1\S[C@H](CCO)C(=O)N1c1ccccc1,-5.1%[46.1 µM]
CCCCc1nc2c(c3c1C[C@H](C)OC3)CN(S(=O)(=O)CCCC)CC2,-1.5%&-1.5%&-1.5%[14.2 µM]

# Returning to the listing; the seven compounds before the break are reprinted first.
SMILES,Marburg entry inh
CC(C)CON=C1C[C@@H](O)[C@@H](O)[C@@H]2[C@H]3C(=O)N(c4cccc(Oc5ccccc5)c4)C(=O)[C@@H]3CC[C@H]12,-1.1%[14.2 µM]
N#C/C(C(=O)NCc1ccccc1)=C1\S[C@H](CCO)C(=O)N1c1ccccc1,-5.1%[46.1 µM]
CCCNC(=O)OC[C@H]1O[C@H](CCON=C2[C@H]3CCn4c(=O)n(-c5ccccc5)c(=O)n4[C@@H]3[C@H](O)[C@@H]3O[C@H]23)C=C[C@H]1Oc1ccc(OC)cc1,?
COC(=O)C1=C(C(=O)OC)[C@@H]2Nc3ccccc3[C@@]23C[C@@H](C(=O)OC)N(C(=O)Nc2ccc(C(F)(F)F)cc2)C3=N1,-15.4%[14.2 µM]
CCCCc1nc2c(c3c1C[C@H](C)OC3)CN(S(=O)(=O)CCCC)CC2,-1.5%&-1.5%&-1.5%[14.2 µM]
C[C@@H]1CC[C@H]2C(=O)N(Cc3ccccc3)C[C@H](O)CN2[C@H]1c1ccc(Br)cc1,-24.2%[14.2 µM]
CC(C)=CCC/C(C)=C/CO/N=C1\C[C@@H](O)[C@@H](O)[C@@H]2[C@@H]3C(=O)N(C[C@@H]4CCCO4)C(=O)[C@@H]3CC[C@H]12,-5.0%[14.2 µM]
CCOC(=O)N/N=C1/C[C@@H](O)[C@@H](O)[C@@H]2[C@@H]3C(=O)N(Cc4ccc5c(c4)OCO5)C(=O)[C@H]3CC[C@H]12,-1.5%[14.2 µM]
COc1cc2c(cc1OC)[C@@H]1O[C@](CCCCN3C(=O)c4ccccc4C3=O)(C2)OC2=C1C(=O)c1ccccc1C2=O,-8.7%[14.2 µM]
COc1ccc(/C(O)=C2\C(=O)C(=O)N(c3cc(C)on3)[C@H]2c2ccccc2OC)cc1C,-2.7%
CCCC[C@]12Cc3cc(C#N)ccc3[C@H](O1)c1c(c3cc(F)ccc3oc1=O)O2,28.7%[14.2 µM]
COC(=O)C1=C(C(=O)OC)[C@@H]2Nc3ccccc3[C@@]23C[C@@H](C(=O)OC)N(C(=O)NC2CCCC2)C3=N1,-3.8%[14.2 µM]
O=c1oc(Cl)c(Cl)c2c1CCCC2,-27.8%
CC(C)Nc1oc(-c2ccccc2)nc1-c1ccc(C(F)(F)F)cc1,-8.1%[14.2 µM]
C=CCN=C1NC(CCc2ccccc2)C(C(=O)OC)=C(C)N1CC (stereo not drawn),?
CCOC(C(=O)OC[C@@H](O)CN(CC)CC)(c1ccccc1)c1ccccc1,-24.8%
COC(=O)C[C@H]1c2ccccc2[C@@H]2C(=C[C@@H](C)[C@H]3C(=O)N(O)C(=O)[C@H]32)N1C(=O)OC,8.0%[14.2 µM]
O=C(C=Cc1ccc2c(c1)OCO2)c1ccc(F)cc1,-9.4%[14.2 µM]
O[C@H]1C[C@H](c2ccc(Cl)cc2)N(Cc2cccs2)C[C@H]1n1cc(C2CC2)nn1,?
C[C@H](N)c1cccc(Cl)c1Cl,9.4%
COc1ccc(COC(=O)N/N=C2/C[C@@H](O)[C@@H](O)[C@@H]3[C@@H]4C(=O)N(C5CCCCC5)C(=O)[C@H]4CC[C@H]23)cc1,?
COCCN1C(=O)NC(c2cccc(C(F)(F)F)c2)C(C(=O)OC)=C1C (stereo not drawn),?
Cn1c2c(c(=O)n(C)c1=O)[C@@](NC(=O)C(C)(C)C)(C(F)(F)F)C(=O)N2,-2.8%
COc1cccc2c1C1(CCCCC1)CC2NC(=O)C(F)(F)F (stereo not drawn),-14.5%[14.2 µM]
C=CCOC(=O)N[C@@H](CC(C)C)C(C(=O)OC)=C(C)NCc1ccccc1,?
C[C@@H]1CC[C@H]2C(=O)NC[C@@H](O)CN2[C@@H]1c1ccc(Br)cc1,?
CC(C)[C@@H](OCc1ccccc1)[C@H](C)C=NO[C@H](C)c1cn([C@H](CO)Cc2ccccc2)nn1,?
Nc1ccccc1C(=O)C=Cc1ccccc1,?
CCCOc1cccc([C@H]2/C(=C(/O)c3ccc(F)cc3)C(=O)C(=O)N2CCN(C)C)c1,-1.1%[46.1 µM]
CCc1cc2c(nc1CC)CCN(CC/C(C)=N/OCC[C@@H]1C=C[C@H](OC(C)=O)[C@@H](COC(C)=O)O1)C2,?
CC(C)=CCCC(C)=CCON=C1C[C@@H](O)[C@@H](O)[C@@H]2[C@H]3C(=O)N(C[C@@H]4CCCO4)C(=O)[C@@H]3CC[C@H]12,21.6%[14.2 µM]
Cc1ccc(O[C@@H]2[C@H](O)CO[C@@H]2/C=C/C#Cc2ccc(C(C)(C)C)cc2)cc1,-34.7%[14.2 µM]
COc1ccc(OC)c(-c2ccccc2C=NNS(=O)(=O)c2ccc(C)cc2)c1,?
CCN(CC)C(=O)CSC1=C(C#N)[C@H](c2ccco2)C(C(=O)OCCOC)=C(C)N1,9.3%
COCCN1C(=O)NC(CCc2ccccc2)C(C(=O)OC)=C1C (stereo not drawn),?
COc1ccc(OC)c([C@H]2/C(=C(\O)c3ccccc3)C(=O)C(=O)N2Cc2ccco2)c1,10.3%[46.1 µM]
O=C1C2=C(C(=O)c3ccccc31)[C@H]1O[C@](c3ccsc3)(Cc3ccccc31)O2,-7.7%[14.2 µM]
COC[C@@H](O)[C@H]1OCc2ccccc2[C@@H]1C=Cc1ccccc1,-36.8%[14.2 µM]
CC(C)=CCC/C(C)=C/CO/N=C1/C[C@@H](O)[C@@H](O)[C@@H]2[C@H]3C(=O)N(c4ccc(F)cc4F)C(=O)[C@@H]3CC[C@@H]12,?
COC(=O)/C=c1\s/c(=C(/C#N)C(=O)N2CCCCC2)n(-c2ccccc2)c1=O,-33.1%
C=CC[C@]1(C(=O)OC)C=C[C@H](C)[C@@H](c2ccccc2)N1C(=O)C(F)(F)F,-15.4%[14.2 µM]
CCN(CC)CC(O)CN1CCCCc2nc(C)c(C)cc21 (stereo not drawn),-8.4%[14.2 µM]
C[C@@H](NC(=O)/C(C#N)=C\c1ccc(O)c(O)c1)c1ccccc1,?
COCCCN1C(=O)C(O)=C(C(=O)c2ccco2)[C@H]1c1ccc(Br)cc1,-1.2%
CCC(=O)C[C@@H](NC(=O)OC)c1ccccc1,?
COc1cccc([C@@H]2Oc3ccc(Br)cc3[C@H](O)[C@@H]2O)c1,?
CCCCNC(=O)Nc1ccc([C@@](O)(C(=O)OCC)C(F)(F)F)cc1,-1.1%
CCCCc1nc2c(c3c1C[C@H](C)OC3)CN(C(=O)Cc1cccs1)CC2,?
CC1N=C2C(=O)OC3C=CC=CC3=C2N1c1ccccc1 (stereo not drawn),4.0%
C[C@H]1[C@H](O)[C@@H](N=[N+]=[N-])CCO[C@H]1c1ccccc1,-11.7%[14.2 µM]
CCCNC(=O)OC[C@@H]1O[C@H](CCO/N=C(\C)CCC(=O)OC[C@@H]2O[C@H](C#Cc3ccccc3)C=C[C@@H]2Oc2ccc(C)cc2)C=C[C@@H]1Oc1ccc(OC)cc1,-28.6%[14.2 µM]
CCN1C(=O)NC(c2cccc(F)c2)C(C(C)=O)=C1C (stereo not drawn),?
COC(=O)C1=C(C)N(Cc2ccccc2)C(=O)NC1c1ccco1 (stereo not drawn),12.6%[14.2 µM]
COC(=O)N1CCc2cc(OC)c(OC)cc2C1Cc1ccc(OC)cc1 (stereo not drawn),15.3%&15.3%[14.2 µM]
CC12C=C(/C=C/c3ccccc3)C(C)(C1)C(c1ccccc1)CC2=O (stereo not drawn),-4.1%[14.2 µM]
CC(C)CN1C(=O)N(C)C(=O)C2N=CN=C21 (stereo not drawn),23.2%&23.2%
COc1ccc(NC(=O)N2CCc3nc(-c4ccccc4)c4c(c3C2)CO[C@@H](C)C4)cc1,5.6%&5.6%&5.6%[14.2 µM]
CCCCC[C@H](O)c1cccc(OCc2ccc3ccccc3n2)c1,-30.8%
O=C1[C@H]2[C@H]3[C@H](O)[C@H](O)C/C(=N\OC[C@@H](O)COCc4ccco4)[C@@H]3CC[C@H]2C(=O)N1C[C@@H]1CCCO1,3.6%[14.2 µM]
O=C1[C@H]2[C@@H]3[C@@H](O)[C@H](O)CC(=NOCc4ccccc4)[C@@H]3CC[C@H]2C(=O)N1c1ccc(F)cc1F,?
Cc1cccc(C)c1OC[C@@H](N)C(C)C,-18.7%
O=C(N/N=C1\C[C@@H](O)[C@@H](O)[C@@H]2[C@@H]3C(=O)N(Cc4ccc5c(c4)OCO5)C(=O)[C@@H]3CC[C@H]12)OCc1ccccc1,-2.2%[14.2 µM]
COc1c2c(nc3ccccc13)O[C@@H]([C@@](C)(O)CO)C2,?
COc1ccc(-c2nc(-c3ccccc3)oc2NC2CCCCC2)cc1,?
CC[Se]CC[C@@H](N)C(=O)O,-8.1%
COC(=O)CC=C[C@H](C)[C@@H](NC(=O)C(F)(F)F)c1ccccc1Br,-21.4%[14.2 µM]
O=C1Nc2cccc(Br)c2[C@@]12O[C@H](COc1ccccc1)CC1=CCC[C@H]12,?

# For convenience, part of the list above.
SMILES,Marburg entry inh
CCCCc1nc2c(c3c1C[C@H](C)OC3)CN(C(=O)Cc1cccs1)CC2,?
CC1N=C2C(=O)OC3C=CC=CC3=C2N1c1ccccc1 (stereo not drawn),4.0%

# Next results:
SMILES,Marburg entry inh
C=C1C2c3ccccc3C(CC2(C)O[Si](C)(C)C)N1C(=O)OC (stereo not drawn),22.2%&22.2%[14.2 µM]
Cc1c(O)c(CN2CCCC(C)C2)cc2c3c(c(=O)oc12)CCC3 (stereo not drawn),-0.7%
CCOC(=O)CCN1C(=O)[C@H]2[C@H]3[C@H](O)[C@H](O)C/C(=N/OCC(C)C)[C@@H]3CC[C@@H]2C1=O,-10.9%[14.2 µM]
C[C@]12O[C@@H]1[C@@H](O)C(Br)=C(CO)[C@@H]2O,?

# Not all compounds are listed, so the mix of outcomes need not match the whole.
